miR-21 reporter = raises the signal of a miR-21 reporter; HeLa miR-21 FLuc reporter, luciferase, 48 h; Potency, µM (series often up to 38.3 µM), without a hit: at the highest dose reporter change, positive = more light; 340,000 tested, under 10 active; active = well fitted rising curve with a large enough effect; inconclusive = small, poorly fitted or top-dose-only effect; inactive = no such curve, though single readings can be large or run the other way;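 note: % of control where 0% means no effect; miR-21 action dims this reporter so a rising signal means less miR-21 action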
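HeLa cells stably expressing CMV-driven firefly luciferase with a downstream miR-21 binding sequence, endogenously expressing miR-21, were treated with titrations (up to about 40uM final) for 48 hours at 37 degree Celsius. Luciferase luminescence was read after lysis.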
GLA inh pH 4.5 = blocks human alpha-galactosidase A at pH 4.5 | P06280 | purified enzyme, 4-MU-alpha-Gal fluorescence, pH 4.5 | activity change, negative = inhibition, % at 105 µM | 230,000 tested, under 10 active; inconclusive = small, poorly fitted or top-dose-only inhibition, or a rising curve; inactive = flat fitted curve, though single readings scatter; no compound was filed as active;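 note: 0% = full activity with enzyme and -100% = basal without enzyme; dose as in the result columns while the protocol names 77 µM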
Rango complex inh = Rango-importin beta binding inhibition | Rango CFP/YFP FRET sensor + importin beta, 45 min | Potency, µM (doses to about 92.2 µM), for inactives: top-dose inhibition of complex formation | hit rate 0.031% among 340,000; active = rising FRET ratio curve, often small or poorly fitted; inconclusive = mostly compound fluorescence or quenching in the first reads; inactive = flat curves in all reads;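 note: potency is the fitted concentration of half-maximal effect; 0% = DMSO wells and 100% = buffer wells lacking importin beta; nearly all actives have a fitted effect of over 15% in size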
Target sequence (Q14974 whole entry, looked up): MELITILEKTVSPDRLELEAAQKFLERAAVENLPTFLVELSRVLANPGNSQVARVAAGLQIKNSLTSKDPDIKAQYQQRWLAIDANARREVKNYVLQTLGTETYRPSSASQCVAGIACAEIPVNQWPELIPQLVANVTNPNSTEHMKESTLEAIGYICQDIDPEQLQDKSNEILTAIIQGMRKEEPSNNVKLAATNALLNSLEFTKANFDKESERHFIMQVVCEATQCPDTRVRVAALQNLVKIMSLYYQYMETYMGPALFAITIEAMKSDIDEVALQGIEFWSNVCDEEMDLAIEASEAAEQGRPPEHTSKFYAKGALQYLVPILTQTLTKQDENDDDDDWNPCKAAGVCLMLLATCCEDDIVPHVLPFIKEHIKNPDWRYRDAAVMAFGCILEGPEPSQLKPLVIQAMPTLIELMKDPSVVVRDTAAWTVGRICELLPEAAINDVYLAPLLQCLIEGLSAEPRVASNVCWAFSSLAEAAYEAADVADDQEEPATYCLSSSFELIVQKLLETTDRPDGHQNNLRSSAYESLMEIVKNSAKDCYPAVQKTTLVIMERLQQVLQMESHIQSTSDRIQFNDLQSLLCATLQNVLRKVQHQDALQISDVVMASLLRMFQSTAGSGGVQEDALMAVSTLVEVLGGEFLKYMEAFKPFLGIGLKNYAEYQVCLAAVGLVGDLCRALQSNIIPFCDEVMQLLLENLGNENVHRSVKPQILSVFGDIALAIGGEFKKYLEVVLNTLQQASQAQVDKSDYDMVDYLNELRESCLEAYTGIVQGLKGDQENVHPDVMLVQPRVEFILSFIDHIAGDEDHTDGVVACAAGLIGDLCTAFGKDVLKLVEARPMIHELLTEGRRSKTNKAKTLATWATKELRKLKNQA
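FRET biosensor (snurportin 1 IBB flanked by EYFP and cerulean), 50 nM, with compound 5 min, then 0.125 microM importin beta in PBS, 1 mM DTT, 0.02% Tween-20, 0.1% BSA. CFP/YFP ratio read after 45 min at room temperature; pre-read flags interference.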
Rango dissoc inh = prevents RanGTP from dissociating the Rango-importin beta complex; hit rate 0.071% among 340,000; AID 540253; Potency, µM (top dose mostly 46.1 µM), for inactives: at the highest dose activity change, negative = inhibition; O95149+P62826; Biochemical FRET Rango-importin beta, RanGTP-induced dissociation; active means falling FRET ratio curve, often poorly fitted, with flat reads before Ran was added; inconclusive means other falling curves, or compound fluorescence or quenching; inactive means flat or rising ratio curve;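 note: potency is the fitted concentration of half-maximal effect; % of control where 0% means no effect; nearly all actives have a fitted effect of over 45% in size; -100% = wells without RanGTP and RCC1; the record marks most hits as doubtful in a second field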
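Recombinant Rango FRET biosensor (EYFP–snurportin 1 IBB–cerulean CFP10) at 0.1 uM premixed with 0.25 uM importin beta in PBS, 1 mM DTT, 0.02% Tween-20, 0.1% BSA. Compound added 5 min; RanGTP-RCC1 (0.6 uM Ran, 2 mM GTP, 0.2 uM RCC1) then triggers release, read at 45 min.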
Numbers without * were called inactive; u = inconclusive; x = not tested or not shown.

SMILES	miR-21 reporter	GLA inh pH 4.5	Rango dissoc inh	Rango complex inh
O=C(c1ccc(Cl)c(NC2=NC3CS(=O)(=O)CC3S2)c1)N1CCN(c2ccccc2)CC1 (stereo unspecified)	1%	x	4%	2.7%
CCCCN1CC(O)=C(c2nc3ccccc3[nH]2)C1=N	-24%	3	-4%	-2.7%
O=C(CN1CCCCCC1)NCCc1ccc(F)cc1	-2%	2	12%	6.6%
COc1ccccc1NC(=O)Cn1nnc(C(=O)Nc2ccccc2)c1N	-10%	-3	5%	0.1%
CCN(CC)C(=O)CSc1nnc2nnc3cc(Cl)ccc3n12	2%	2	u	u
COc1cc(S(=O)(=O)n2c(C)nc3ccccc32)ccc1F	20%	-8	23%	4.6%
O=C(c1cncc(Br)c1)N1CCN(S(=O)(=O)c2ccc3ccccc3c2)CC1	x	x	-6%	0.2%
COC(=O)Cc1ccc(NC(=S)N2CCCCC2C)cc1 (stereo unspecified)	1%	-14	-22%	-4.3%
COc1ccc(C2c3c(ncn(CCN4CCOCC4)c3=N)Oc3ccc4ccccc4c32)cc1 (stereo unspecified)	12%	-7	-5%	0.0%
COCC(=O)Nc1cc(C(=O)OC)cc(C(=O)OC)c1	0%	5	2%	1.3%

Copied from above, three compounds:
SMILES	miR-21 reporter	GLA inh pH 4.5	Rango dissoc inh	Rango complex inh
COc1ccccc1NC(=O)Cn1nnc(C(=O)Nc2ccccc2)c1N	-10%	-3	5%	0.1%
CCN(CC)C(=O)CSc1nnc2nnc3cc(Cl)ccc3n12	2%	2	u	u
COc1cc(S(=O)(=O)n2c(C)nc3ccccc32)ccc1F	20%	-8	23%	4.6%

Next compounds:
SMILES	miR-21 reporter	GLA inh pH 4.5	Rango dissoc inh	Rango complex inh
Clc1ccc(CN2CCC(c3nc4ccc(Cl)cc4[nH]3)CC2)cc1	18%	-3	0%	0.1%
O=C(NCc1ccccc1)NC1CC2CCC(C1)N2Cc1ccco1 (stereo unspecified)	-5%	-7	-5%	3.9%
CCCn1c(SCC(=O)N2CC(=O)Nc3ccccc32)n[nH]c1=O	x	x	-12%	-0.6%
CCC(C(=O)OCC(=O)Nc1c(C)n(C)n(-c2ccccc2)c1=O)c1ccccc1 (stereo unspecified)	-4%	1	-1%	-4.2%
COc1ccc(-c2ccnc(SCC(=O)c3ccc(Br)cc3)n2)cc1	-1%	-1	10%	2.9%
COc1ccc(NC(=O)CN2C(=O)NC(C)(c3ccc(C)cc3)C2=O)c([N+](=O)[O-])c1 (stereo unspecified)	20%	x	-13%	0.9%
COC(=O)c1cc(COc2ccc3c4c(c(=O)oc3c2)CCCC4)c(C)o1	0%	-14	-14%	-8.8%
COc1ccc(C(=O)/C=C/c2ccc(OCc3ccccc3)cc2)cc1CSCC(=O)O	-2%	x	0%	1.8%
O=C(Nc1nnc(SCc2c(Cl)cccc2Cl)s1)C1CCCO1 (stereo unspecified)	-70%	3	-12%	0.8%
CC1Cc2cc(/C(O)=C3/C(=O)C(=O)N(CCCn4ccnc4)C3c3ccncc3)ccc2O1 (stereo unspecified)	1%	-8	15%	2.3%

Next part, overlapping the part above by four compounds.
SMILES	miR-21 reporter	GLA inh pH 4.5	Rango dissoc inh	Rango complex inh
COC(=O)c1cc(COc2ccc3c4c(c(=O)oc3c2)CCCC4)c(C)o1	0%	-14	-14%	-8.8%
COc1ccc(C(=O)/C=C/c2ccc(OCc3ccccc3)cc2)cc1CSCC(=O)O	-2%	x	0%	1.8%
O=C(Nc1nnc(SCc2c(Cl)cccc2Cl)s1)C1CCCO1 (stereo unspecified)	-70%	3	-12%	0.8%
CC1Cc2cc(/C(O)=C3/C(=O)C(=O)N(CCCn4ccnc4)C3c3ccncc3)ccc2O1 (stereo unspecified)	1%	-8	15%	2.3%
Cc1ccc(-c2nn(-c3ccccn3)c(=O)c3ccccc23)cc1	-3%	2	-22%	-0.2%
Cc1ccc(SCCN2CCC(NC(=O)OCc3ccccc3)CCC2=O)cc1 (stereo unspecified)	6%	x	34%	0.5%
O=C(NC1CCCC1)C1CCN(S(=O)(=O)N2CCCCC2)CC1	-4%	2	1%	2.4%
Cn1c(SCC(=O)NC2CCCCC2)nnc1-c1cccc(N)c1	-3%	9	11%	3.7%
Cc1cc(F)ccc1S(=O)(=O)Nc1ccccc1C(=O)NCc1ccccn1	2%	1	13%	-0.2%
CC1CCCCN1S(=O)(=O)c1ccc2[nH]c(=O)cc(C(=O)NCCCN3CCCCCC3)c2c1 (stereo unspecified)	-4%	x	-11%	0.0%
CN(C)c1ccc(-c2nnc(-c3cccnc3)o2)cc1	-63%	x	-13%	-1.0%
COc1ccc(-c2noc(CSc3nc(N)c(-c4ccccc4)c(=O)[nH]3)n2)cc1	-3%	-3	-13%	-4.0%
O=C(CN1CCN(c2ccccc2)CC1)Nc1ccncc1	19%	x	1%	3.0%
COc1cc(NC(=O)COC(=O)CCCC2=NS(=O)(=O)c3ccccc3N2)cc(OC)c1	0%	x	6%	5.2%
Nc1ccc(-c2nc3c(Cl)c(N)ccc3[nH]2)cc1	14%	5	-6%	-2.4%
COc1cccc(NC(=O)Cc2cn(C)c3ccccc23)c1	-17%	-2	31%	0.2%
Cc1c(Br)cc(C(=O)N2CCCCCC2)c(C)c1C	-1%	-11	-4%	-0.4%
Cc1ccnc(NC(=O)c2cccc(S(=O)(=O)N3CCN(c4ccc(F)cc4)CC3)c2)c1	x	x	9%	0.5%
CN1CCN(c2ccc([N+](=O)[O-])cc2C(=O)c2ccccc2)CC1	22%	-12	-7%	-0.7%
CCN1CCc2c(C#N)c(N3CCOCC3)nc(NCc3ccccc3)c2C1	-9%	-2	u	u
CCCCCCCSc1ncnc2[nH]ncc12	x	x	-8%	-1.3%
CC(=O)c1ccc(N(CC(=O)NC2CCCC2)C(=O)CNC(=O)c2ccco2)cc1	-6%	x	3%	-1.3%
CCOC(=O)C1CCN(C(=O)c2[nH]c3ccc(OC)cc3c2C)CC1	-6%	x	4%	-1.2%
Cc1[nH]c2ccc(C(=O)N3CCN(c4ccc(F)cc4)CC3)cc2c1C	-9%	x	-5%	-0.7%
CCOc1ccc(C2/C(=C(\O)c3ccc4c(c3)OCCO4)C(=O)C(=O)N2CCCn2ccnc2)cc1OC (stereo unspecified)	-1%	x	17%	2.1%
CC1=C(C(=O)OCC(Br)(Br)Br)C(c2cccc([N+](=O)[O-])c2)NC(=O)N1CCCC(=O)O (stereo unspecified)	x	x	-1%	-2.0%
CSc1ccc(COC(=O)CCS(=O)(=O)c2ccc(C)cc2)cc1	x	x	9%	-0.4%
COc1ccc(N2CCN(C(=O)CCS(=O)(=O)c3ccc4c(c3)CCN4C(=O)C3CC3)CC2)cc1	10%	x	-4%	2.3%
CC(=O)c1cccc(NC(=O)COC(=O)C2CCCN2C(=O)c2cccs2)c1 (stereo unspecified)	x	x	4%	1.0%
[O-][N+]12CCCCC1CCCC2CO (stereo unspecified)	-1%	6	11%	0.1%
O=C1C2CC=C(Cl)CC2C(=O)N1CCC[n+]1cccc2ccccc21 (stereo unspecified)	-8%	8	-17%	-0.1%
COc1cccc(CN2CC(C(=O)NCCOc3ccccc3F)CCC2=O)c1 (stereo unspecified)	-1%	x	-2%	-0.5%
O=C(Nc1nnc(-c2ccco2)o1)c1cccc(N2C(=O)CCC2=O)c1	-7%	1	48%	1.5%
CC(C)N(C(=O)[C@H]1C[C@H](CC(=O)NCCC2=CCCCC2)C(=O)N2CCc3c([nH]c4cc(CCC(=O)N(C)C)ccc34)[C@]12C)C(C)C	x	x	-2%	-2.4%

An excerpt from above in order of SMILES length, lowest first:
SMILES	miR-21 reporter	GLA inh pH 4.5	Rango dissoc inh	Rango complex inh
[O-][N+]12CCCCC1CCCC2CO (stereo unspecified)	-1%	6	11%	0.1%
CC(=O)c1cccc(NC(=O)COC(=O)C2CCCN2C(=O)c2cccs2)c1 (stereo unspecified)	x	x	4%	1.0%
CCOc1ccc(C2/C(=C(\O)c3ccc4c(c3)OCCO4)C(=O)C(=O)N2CCCn2ccnc2)cc1OC (stereo unspecified)	-1%	x	17%	2.1%

The list continues:
SMILES	miR-21 reporter	GLA inh pH 4.5	Rango dissoc inh	Rango complex inh
CC(=O)N1c2ccccc2C2CCCC[C@H]21 (stereo partly specified)	x	x	2%	-0.9%
CCC(=O)NCCCc1nc(-c2ccccc2)no1	x	x	-13%	3.2%
Cc1ccc(S(=O)(=O)N(c2cccc(C)c2)C2CCS(=O)(=O)C2)cc1 (stereo unspecified)	-2%	14	-7%	-4.5%
CCOc1ccc(CCNC(=O)COC(=O)COc2ccc(C#N)cc2)cc1OCC	x	x	-9%	-6.1%
O=[N+]([O-])c1cc(S(=O)(=O)N2CCCC2)ccc1N/N=C/c1ccncc1	-1%	-8	1%	-2.6%
O=C(/C=C/c1ccccc1)N1CCC(N2CCC(C(=O)N3CCOCC3)CC2)CC1	-3%	0	4%	0.6%
O=C1CCCC2=C1C(c1ccc(O)c(O)c1)Nc1ccc3ncccc3c12 (stereo unspecified)	-9%	-5	-5%	-3.8%
Cc1ccccc1NC1=NC(C)(C)N=C(N)N1	-10%	-5	12%	-1.3%
CC1(C)CC(=O)C(C=Nc2ccc(O)cc2)=C(O)C1	-22%	-3	-7%	-0.2%
C/C(=N\O)c1cc(Cl)cc(Cl)c1O	-6%	-1	1%	0.0%
Cc1cccc(C)c1NC(=O)C(NC(=O)c1ccccn1)c1ccc([N+](=O)[O-])cc1 (stereo unspecified)	3%	-1	13%	-1.8%
Nn1cnc2c(c1=O)C1(CCCCC1)Cc1ccccc1-2	7%	-2	8%	0.5%
COc1ccc(-c2nc(CCl)cs2)cc1OC	-42%	1	-4%	5.6%
O=C(NC1CCCCCC1)c1c(F)c(F)c(F)c(F)c1F	-8%	1	7%	-2.4%
CCOC(=O)c1ccc(N/C(=N\S(=O)(=O)c2ccccc2C)c2ccccc2)cc1	-9%	1	0%	-0.6%
Cc1ccc(S(=O)(=O)Nc2ccc3c(c2)C(=O)N([C@H](C)CO)C[C@H](C)[C@@H](CN(C)Cc2ccccc2)O3)cc1	x	x	0%	-4.0%
O=C(CNC(=O)C12CC3CC(CC(C3)C1)C2)OCc1ccc(F)cc1Cl	x	x	2%	-0.9%
C/C(=N\NC(=O)Cc1ccc(Cl)cc1)c1ccccc1O	20%	x	1%	-2.9%
O=C(NCc1ccccc1)C1=C[C@@H](C2CC2)C[C@@H](OCc2ccc(CO)cc2)O1	-3%	-9	-10%	-5.2%
COc1ccc(NC(=O)c2cc(-c3ccccc3Cl)on2)cc1OC	-27%	x	u	-2.2%
Cc1ccccc1N=Nc1c(O)[nH]c2ccccc12	x	x	-13%	2.0%
COc1cc(C(=O)OCC(=O)NC2CCCCC2)cc(OC)c1OC	x	x	-2%	-1.5%
COc1cccc(N(C(=O)c2ccco2)C(C(=O)NC2CCCC2)c2cccnc2)c1 (stereo unspecified)	-3%	15	0%	0.8%
COc1ccc(NC(=S)N2CCN(C(=O)c3ccco3)CC2)c(OC)c1	-12%	-8	-7%	-2.5%
O=C(/C=C/c1cccc([N+](=O)[O-])c1)Nc1cccc(NC(=O)c2ccco2)c1	1%	-14	-9%	4.5%
CC1=[N+](C)N(c2ccccc2)C(=O)C1N=C/C=C/c1ccccc1 (stereo unspecified)	-1%	-3	2%	-0.1%
N#Cc1cccc(CS(=O)(=O)c2ccc(Cl)cc2)c1	-7%	x	6%	-4.1%
NCc1ccccc1CS(=O)(=O)N1CCOCC1	x	x	13%	-0.6%
C=CC(C)Sc1nc2c(c(=O)n(C)c(=O)n2C)n1Cc1ccccc1Cl (stereo unspecified)	-8%	-3	12%	1.7%
CCn1nc2cc(C(=O)NCC34CC5CC(CC(C5)C3)C4)ccc2c1OC	-23%	0	-8%	-1.0%
COC(=O)[C@]1(C)N[C@H](c2ccc(-c3ccc(Cl)c(Cl)c3)cc2)[C@@H]2C(=O)N(C)C(=O)[C@@H]21	x	x	7%	0.0%
COC(=O)c1ccc(COc2cccc(OC)c2)o1	-49%	-6	10%	0.9%

The list is partial, so the mix of outcomes need not match the whole.
